Assay outcomes as filed in PubChem.
CBX7 AlphaScr – CBX7 chromodomain binding inhibitors, primary screen, biochemical, AlphaScreen; hit rate 1.1% among 66,000; AID 1224903, 2016; normalised signal (fraction of DMSO) (no concentration beside the values); AlphaScreen His6-CBX7 / biotin-H3K27me3 peptide binding; active compounds read low; in the data active = normalised signal below about 0.5;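 note: 100 nL library stock added to about 20 µL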
Target sequence (O95931 whole entry, looked up): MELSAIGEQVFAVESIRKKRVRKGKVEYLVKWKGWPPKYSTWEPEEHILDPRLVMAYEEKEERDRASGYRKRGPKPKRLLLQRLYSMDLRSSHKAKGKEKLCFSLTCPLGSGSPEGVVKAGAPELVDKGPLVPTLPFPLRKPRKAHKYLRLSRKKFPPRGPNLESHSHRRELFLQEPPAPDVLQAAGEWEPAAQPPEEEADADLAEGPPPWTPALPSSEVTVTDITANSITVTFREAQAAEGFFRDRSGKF
CBX7 AlphaScr z-score – also measured in CBX7 AlphaScr; calls as there; z-score; measured here: z-score of CBX7 signal; some inactives read as strong as hits; reference of the scale not given here;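 same signal on another scale; lower means less binding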
The depositor's hits bear a star. Some of the compounds tested; the hit share may differ from the screen's.

Start of the data: the first 2 records as a preview:
SMILES | CBX7 AlphaScr | CBX7 AlphaScr z-score
O=C(Nc1cccc(Cl)c1)c1cn(-c2ccc(F)cc2F)c(=O)c2ccccc12 | 0.932 | -0.942
CCC(=O)N1CCc2cc(S(=O)(=O)NC(C(=O)NCCc3ccc(Cl)cc3)C(C)C)ccc21 (centres undefined) | 1.09 | 1.67

Main list (from the top)
SMILES | CBX7 AlphaScr | CBX7 AlphaScr z-score
O=C(Nc1cccc(Cl)c1)c1cn(-c2ccc(F)cc2F)c(=O)c2ccccc12 | 0.932 | -0.942
CCC(=O)N1CCc2cc(S(=O)(=O)NC(C(=O)NCCc3ccc(Cl)cc3)C(C)C)ccc21 (centres undefined) | 1.09 | 1.67
COc1ccc(CNC(=O)c2ccc3c(c2)ncn3C2CCCC2)c(OC)c1 | 0.774 | -2.47
C=CCNC(=O)CCn1c(=O)[nH]c2ccsc2c1=O | 1.13 | 1.02
COc1ccccc1NC(=O)c1cc(-c2cccs2)nc2ccccc12 | 0.93 | -0.305
CCOc1ccc2nc(NC(=O)Cc3nn(C)c(=O)c4ccccc34)sc2c1 | 1.29 | 2.85
Cc1c(C(=O)N2CCOCC2)sc2nc(-c3ccccc3)cn12 | 0.988 | -0.392
Cc1[nH]nc2c1C(c1ccc(Br)cc1)CC(=O)N2 (centres undefined) | 1.08 | 0.0924
Cc1c(C(=O)NCc2c(F)cc(F)cc2F)oc2ccc(S(=O)(=O)N3CCCC(C)C3)cc12 (centres undefined) | 0.983 | -0.306
COc1ccc(CCNC(=O)c2cc(-c3ccco3)on2)cc1OC | 1.08 | 1.92
Cn1cc(CC(=O)NCCN2CCN(Cc3ccccc3)CC2)c2ccccc21 | 1 | 0.0796
CCN(CC)c1cc(C)c2cc(NC(=O)Cc3c(F)cccc3Cl)ccc2n1 | 0.795 | -2.23
CC1CCN(CCCNC(=O)Cn2nc(-c3ccccc3)ccc2=O)CC1 | 1.05 | 1.61
Cc1ccn2c(NC3CCCCC3)c(-c3cccnc3)nc2c1 | 1.09 | 0.128
Cc1cccc(CN2C(=O)CSc3ccc(C(=O)NC4CCCC4)cc32)c1 | 0.969 | -0.306
CCOC(=O)C1CCCN(Cc2nc(-c3ccc(Cl)cc3)oc2C)C1 (centres undefined) | 0.964 | -1.59
CCS(=O)(=O)N1CCC(C(=O)NCc2cccc(OC)c2)CC1 | 0.972 | -0.922
Cc1oc(-c2ccccc2F)nc1CSCC(=O)NC1CCCCCC1 | 1.03 | 0.561
O=C(NCc1cccc(Cl)c1)C1CCN(C(=O)c2sccc2-n2cccc2)CC1 | 0.981 | -0.881
CCC1CCCCN1C(=O)c1cc2c(s1)-c1ccccc1OC2 (centres undefined) | 1.11 | 3.05
Cc1ccc(C(=O)N(Cc2nc(-c3cccc(C)c3)no2)C(C)C)cc1 | 0.731 | -2.67
Cc1c(Cl)cccc1NS(=O)(=O)c1ccc2[nH]cc(C(=O)N3CCc4ccccc43)c(=O)c2c1 | 1.01 | 0.266
COCCCNC(=O)c1ccc2c(c1)N(Cc1c(F)cccc1Cl)C(=O)CS2 | 0.978 | -0.222
Cc1noc(C)c1S(=O)(=O)N1CCCC(C(=O)N2CCN(c3ccccn3)CC2)C1 (centres undefined) | 1.18 | 2.86

Quoted at random: 6 records from the list.
SMILES | CBX7 AlphaScr | CBX7 AlphaScr z-score
Cc1[nH]nc2c1C(c1ccc(Br)cc1)CC(=O)N2 (centres undefined) | 1.08 | 0.0924
Cc1ccc(C(=O)N(Cc2nc(-c3cccc(C)c3)no2)C(C)C)cc1 | 0.731 | -2.67
O=C(NCc1cccc(Cl)c1)C1CCN(C(=O)c2sccc2-n2cccc2)CC1 | 0.981 | -0.881
COc1ccc(CNC(=O)c2ccc3c(c2)ncn3C2CCCC2)c(OC)c1 | 0.774 | -2.47
CCOc1ccc2nc(NC(=O)Cc3nn(C)c(=O)c4ccccc34)sc2c1 | 1.29 | 2.85
Cc1ccn2c(NC3CCCCC3)c(-c3cccnc3)nc2c1 | 1.09 | 0.128

Compound profiles (already shown). Order of values: CBX7 AlphaScr	CBX7 AlphaScr z-score
`Cc1oc(-c2ccccc2F)nc1CSCC(=O)NC1CCCCCC1` is listed as 1.03	0.561
`CCS(=O)(=O)N1CCC(C(=O)NCc2cccc(OC)c2)CC1` is listed as 0.972	-0.922
`O=C(NCc1cccc(Cl)c1)C1CCN(C(=O)c2sccc2-n2cccc2)CC1` is listed as 0.981	-0.881
`CCN(CC)c1cc(C)c2cc(NC(=O)Cc3c(F)cccc3Cl)ccc2n1` is listed as 0.795	-2.23

Other results follow:
SMILES | CBX7 AlphaScr | CBX7 AlphaScr z-score
CCN(C(=O)CCc1nc(-c2ccc(C)cc2)no1)c1ccccc1 | 1.03 | 1.06
CC1CCCC(NC(=O)c2ccc3c(c2)N(Cc2ccc(Cl)cc2)C(=O)CS3)C1C (centres undefined) | 1.03 | 0.652
O=C(c1cc(-c2ccc(Cl)c(Cl)c2)nc2ccccc12)N1CCN(c2ccc(F)cc2)CC1 | 0.87 | -2.96
CC1=Nc2cc(C(=O)NCc3cccnc3)ccc2Sc2ccccc21 | 1.1 | 1.59
Cc1ccccc1Cn1cc(NC(=O)c2cc(-c3ccc(Cl)c(Cl)c3)on2)cn1 | 1.02 | 0.497
Cc1cccc(CC(=O)N2CC(=O)Nc3ccc(Br)cc3C2c2ccccc2)c1 (centres undefined) | 0.866 | -3.39
Cc1cc(C)c2oc(-c3cc(NC(=O)CC(C)C)ccc3Cl)nc2c1 | 0.992 | -0.212
COc1cccc(C(=O)Nc2nc(-c3ccc(Cl)cc3)cs2)c1 | 1.04 | 0.109
COc1ccc(-n2nc(C(=O)NCC(=O)NC(C)C)c3ccccc3c2=O)cc1 | 0.986 | -0.289
Cc1cccnc1NC(=O)CC1Oc2ccccc2NC1=O (centres undefined) | 1.05 | 0.933
Cc1cccc(C)c1NC(=O)CSc1nnc(-c2ccncc2)n1-c1ccccc1 | 1.02 | 0.528
Cn1c2ccccc2c2c(C(=O)NCCCN3CCCC3=O)cn(C3CCCC3)c(=O)c21 | 1.03 | 0.852
Cc1sc2ncn(CC(=O)NCCN(C)C)c(=O)c2c1S(=O)(=O)N1CC(C)CC(C)C1 (centres undefined) | 0.981 | -0.188
COc1ccc(Cl)cc1NC(=O)CSc1nccn1-c1ccccc1 | 0.594 | -15.2
Cc1cc2c3c(c1)c(O)cc(=O)n3C(C)(C)CC2C (centres undefined) | 1.02 | 0.483
COC(=O)c1cc(N2C(=O)C3C4C=CC(C)(O4)C3C2=O)ccc1Cl (centres undefined) | 0.93 | -0.76
O=C(Nc1ccc(Cl)c(Cl)c1)C1OC2OC3(CCCCC3)OC2C2OC3(CCCCC3)OC12 (centres undefined) | 1.02 | 0.227
CC(C)c1nc(N2CCN(C(=O)Nc3ccccc3)CC2)c(C#N)c2c1COC(C)(C)C2 | 0.918 | -2.86
COc1ccccc1-c1cc(C(F)(F)F)nc(N2CCN(c3ccccc3)CC2)n1 | 1.24 | 1.96
C=CCc1ccccc1OCC(O)CN1CC(C)OC(C)C1 (centres undefined) | 0.988 | -0.288
CCC1=Nc2cc(C(=O)NCC3CCCN3CC)ccc2Sc2ccc(Cl)cc21 (centres undefined) | 0.746 | -3.64
Cc1ccccc1-c1nc(-c2ccc(NC(=O)c3ccncc3)cc2)no1 | 1.01 | 0.143
CC1CCCCC1NC(=O)C1CCN(c2nc3ccc(Cl)cc3s2)CC1 (centres undefined) | 0.984 | -0.174
Cc1ccc(C2CC(=O)c3cnc(N)nc3C2)cc1 (centres undefined) | 1.07 | 0.739
COCCNC(=O)c1ccc2c(c1)nc(C)n2-c1ccc(F)cc1F | 0.971 | -0.778
COc1ccc(C2CC(=O)N(CC(=O)Nc3ccccc3C)c3ccccc3S2)cc1OC (centres undefined) | 1.01 | 0.112
O=C(Cc1c(C(=O)O)[nH]c2ccc(Cl)cc12)NC1CCCCC1 | 0.99 | -0.302
COc1ccc(CC(=O)NCC2(c3ccc(OC)c(OC)c3)CCCC2)cc1OC | 1.05 | 2.44
Cc1ccc(CSc2nnc(-c3ccncc3)o2)c(C)c1 | 1.05 | 1.8
Cc1cccc(Oc2cc([N+](=O)[O-])cc3c2C(=O)Nc2ccccc2O3)c1 | 0.568 | -4.13
Cc1nc2c(C(=O)NCCc3ccccc3)c[nH]n2c(=O)c1Cc1ccccc1F | 1.01 | 0.202
COc1ccc(OC)c(C2=NOC(C(=O)NCc3cccs3)C2)c1 (centres undefined) | 1 | 0.13
COc1ccccc1-c1nnc(NC(=O)c2ccc(S(=O)(=O)N3CCOCC3)cc2)o1 | 0.634 | -8.28
CCC1Sc2ccccc2N(CC(=O)NCc2ccc(F)cc2)C1=O (centres undefined) | 1.13 | 4.59
CCCCn1c(CNC(=O)c2cccc(C)c2)nc2ccccc21 | 1.04 | 1.33
COc1ccc(-c2nnc(SCC(=O)N3CCCC3)o2)cc1 | 0.968 | -0.0731
COc1ccc(-c2nc(-c3ccccn3)no2)cc1OC | 1 | 0.0857
CCC(Oc1ccccc1)c1nc(-c2ccc(Br)cc2)no1 (centres undefined) | 1.31 | 3.89
CC(C)(C)c1nnc(Nc2cccc(Cl)c2)[nH]c1=O | 1.03 | 0.875
Cc1nnc(Nc2ccc(F)cc2)c2ccccc12 | 1.01 | 0.0113
Cc1ccc(-n2cc(C(=O)N3CCN(c4cccc(Cl)c4)CC3)c3ccccc3c2=O)cc1C | 0.89 | -3.13
Cc1oc(-c2ccc(Cl)cc2)nc1C(=O)NC(C)c1ccccc1 (centres undefined) | 1.06 | 0.15
COc1c2ccoc2nc2c(OC)c(OC[C@H](O)C(C)(C)O)ccc12 | 1.06 | 1.2
O=C(NCc1ccc(F)cc1)c1cc(-c2ccc(Br)cc2)on1 | 1.09 | 0.122
CCOCCCNC(=O)c1cc(Sc2ccc(OCC)cc2)nc2ccccc12 | 1.02 | 0.633
O=C(Cc1c(C(=O)O)[nH]c2ccccc12)NCc1ccc(F)cc1 | 1.1 | 2.15
CC1CCN(c2c(NCc3ccc(C(=O)NCc4ccccc4Cl)cc3)c(=O)c2=O)CC1 | 0.909 | -0.531
Cc1c(C(=O)N2c3ccccc3CC2C)sc2nc(-c3ccc(F)cc3)cn12 (centres undefined) | 1.02 | 0.616
COc1ccc(C2(CNS(=O)(=O)c3ccc(C)cc3)CCOCC2)cc1 | 1.05 | 1.9
CC(C)c1ccc(NC(=O)c2cnc(N3CCN(c4ccccn4)CC3)c3ccccc23)cc1 | 1.08 | 2
Cc1ccc(NC(=O)c2cc3c(n(-c4ccc(Cl)cc4)c2=O)CC(C)(C)CC3=O)cc1 | 1.01 | 0.0645
O=C(CCN1N=C(c2ccccc2)CCC1=O)NCCc1ccccc1 | 1.03 | 0.498
O=C(Nc1ccc2oc(-c3ccc(Br)cc3)nc2c1)c1ccc(Cl)cc1Cl | 1.06 | 1.22
O=C1c2ccccc2NC(c2ccccc2)N1c1ccccn1 (centres undefined) | 1.08 | 3.4
COc1ccc(-c2cc(CCCC(=O)Nc3nccs3)no2)cc1 | 1.04 | 1.72
Cc1ccc(-n2cc(C(=O)N3CCCCC3)c3ccccc3c2=O)cc1C | 0.887 | -0.712
O=C(NCC1CCCO1)c1cnn2c(C(F)(F)F)cc(-c3ccccc3)nc12 (centres undefined) | 1.04 | 1.68
Cc1ccc(C(=O)N2CCN(c3nnc(-c4ccccc4)c4ccccc34)CC2)cc1 | 0.95 | -2.24
COc1cc2c(C(=O)N(C)c3ccc(Br)cc3)cn(CC(C)C)c(=O)c2cc1OC | 1.02 | 0.737
Cc1ccc(OCc2nc3ccccc3n2C(C)c2ccccc2)cc1 (centres undefined) | 0.979 | -0.783
(continued)
SMILES | CBX7 AlphaScr | CBX7 AlphaScr z-score
CC(=O)N1CCc2cc(S(=O)(=O)NC(CC(C)C)C(=O)NCc3ccc4c(c3)OCO4)ccc21 (centres undefined) | 0.969 | -0.707
CC(NC(=O)c1cccc(F)c1)C(c1cccs1)N1CCN(c2ccc(F)cc2)CC1 (centres undefined) | 0.939 | -1.98
COc1ccc(OCc2nc(C#N)c(N(C)Cc3ccccc3)o2)cc1 | 0.575 | -2.65
COc1cccc(C(=O)Nc2nc3c(s2)CCc2ccccc2-3)c1 | 1.07 | 2.69
CCOc1ccc(C(=O)Nc2cc(-c3nc4ccccc4o3)ccc2C)cc1Cl | 1.07 | 0.689
Cc1cc2ccccc2c(=O)n1CC(=O)N1CCN(c2ccccc2)CC1 | 0.989 | -0.287
COc1cc2c(cc1OC)C(C(=O)N(C)Cc1ccccc1)C1c3ccccc3CCN1C2=O (centres undefined) | 1.07 | 2.16
CN(C)S(=O)(=O)c1ccc(C(=O)Nc2nnc(-c3ccc(F)cc3)o2)cc1 | 0.044* | -4.21*
Cc1cccc(N2CCN(C(=O)C3CCCN(S(=O)(=O)c4cccc5cccnc45)C3)CC2)c1C (centres undefined) | 0.854 | -2.35
CC(=O)Nc1ccc(-n2c(CCC(=O)O)ccc2-c2ccc(Br)cc2)cc1 | 0.88 | -2.23
O=C(NCCc1ccccc1)c1nnc(Cc2ccc(F)cc2)o1 | 0.883 | -1.35
Cc1oc(-c2ccccc2Cl)nc1CS(=O)(=O)CC(=O)NCCC1=CCCCC1 | 0.94 | -1.7
O=C(NC1CCCCC1)c1ccc2c(c1)N(Cc1ccc(F)cc1)C(=O)c1ccccc1S2=O (centres undefined) | 0.919 | -1.15
CCn1cc(C(=O)NCc2ccc3c(c2)OCO3)c2cc(OC)c(OC)cc2c1=O | 1.06 | 0.493
CCOCCCNC(=O)c1cn(C)c(=O)c2cc(OC)c(OC)cc12 | 1.11 | 2.9
Cc1cccc(OCCn2c(C3CC(=O)N(c4cccc(C)c4C)C3)nc3ccccc32)c1 (centres undefined) | 0.691 | -1.93
CCc1ccccc1NS(=O)(=O)c1ccc2[nH]cc(C(=O)N3CCOCC3)c(=O)c2c1 | 1.21 | 2.65
COc1cc(OC)cc(-c2cc3nc(C)c(CCC(=O)NCCCc4ccccc4)c(C)n3n2)c1 | 0.98 | -0.496
Cc1ccc(NC(=O)CSc2nccn2-c2cccc(C)c2)cc1 | 0.815 | -0.184
